RGS16-Gao – modulates binding between human RGS16 and Galphao. bead-based flow cytometry RGS16-Galphao binding, fluorescence; actives lie on both sides. binding response (% of control), % at 10 µM. 220,000 compounds, 0.38% hits;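 active = below 25% or above 175%, edge rows of some plates excepted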;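 also: Galphao activated by GDP with aluminum fluoride before binding; 100% = wells without compound and 0% = beads without RGS; some results beyond the cut were filed as inactive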
HSV replic up – HSV replication enhancement; HSV replication augmentation in cells, fold increase; maximum fold increase; 220,000 compounds, 0.005% hits;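 active = peak rise of 1.5-fold or more in the series; inconclusive = self-fluorescent or not available for retest; tested in PC3 cells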;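 also: first round at 10 µM; read as green reporter fluorescence; hits show the peak of a series up to 25 µM; 1 = signal of infected wells without compound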
GALR2 ag – activates the human galanin receptor 2; GALR2-expressing cells, agonist activation read-out; 140,000 compounds, 0.48% hits; O43603; activation, %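 (tested at 5 µM)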;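 active = above mean plus 3 SD of all compounds, about 5% in these data, not always enough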;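 also: 0% = vehicle buffer wells and 100% = reference agonist at full effect; tested in CHO reporter cells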
Insulin prom inh – TRM-6 insulin promoter activity inhibition. TRM-6 cells (human fetal islet line), insulin promoter-eGFP reporter, imaging; reporter expression induced with tamoxifen. inhibition, % at 2 µM. 130,000 compounds, 0.9% hits;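 active = inhibition above the mean plus 3 SD, with well images judged a real hit on visual review, cut at about 60% in these data, passing the limit was not always enough; inconclusive = inhibition over the cutoff but images rejected on review; inactive = inhibition not above the cutoff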
PKD1 kinase inh – PKD1 (human) kinase inhibition; PKD1 kinase fluorescence polarization assay; inhibition, %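 (about 10 µM by stock and volumes)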; Q15139; 200,000 compounds, 0.056% hits; AID 797;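 active = inhibition of 50% or more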;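 also: controls were vehicle for no effect and a reference inhibitor for full effect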
Target sequence (Q15139 whole entry, looked up): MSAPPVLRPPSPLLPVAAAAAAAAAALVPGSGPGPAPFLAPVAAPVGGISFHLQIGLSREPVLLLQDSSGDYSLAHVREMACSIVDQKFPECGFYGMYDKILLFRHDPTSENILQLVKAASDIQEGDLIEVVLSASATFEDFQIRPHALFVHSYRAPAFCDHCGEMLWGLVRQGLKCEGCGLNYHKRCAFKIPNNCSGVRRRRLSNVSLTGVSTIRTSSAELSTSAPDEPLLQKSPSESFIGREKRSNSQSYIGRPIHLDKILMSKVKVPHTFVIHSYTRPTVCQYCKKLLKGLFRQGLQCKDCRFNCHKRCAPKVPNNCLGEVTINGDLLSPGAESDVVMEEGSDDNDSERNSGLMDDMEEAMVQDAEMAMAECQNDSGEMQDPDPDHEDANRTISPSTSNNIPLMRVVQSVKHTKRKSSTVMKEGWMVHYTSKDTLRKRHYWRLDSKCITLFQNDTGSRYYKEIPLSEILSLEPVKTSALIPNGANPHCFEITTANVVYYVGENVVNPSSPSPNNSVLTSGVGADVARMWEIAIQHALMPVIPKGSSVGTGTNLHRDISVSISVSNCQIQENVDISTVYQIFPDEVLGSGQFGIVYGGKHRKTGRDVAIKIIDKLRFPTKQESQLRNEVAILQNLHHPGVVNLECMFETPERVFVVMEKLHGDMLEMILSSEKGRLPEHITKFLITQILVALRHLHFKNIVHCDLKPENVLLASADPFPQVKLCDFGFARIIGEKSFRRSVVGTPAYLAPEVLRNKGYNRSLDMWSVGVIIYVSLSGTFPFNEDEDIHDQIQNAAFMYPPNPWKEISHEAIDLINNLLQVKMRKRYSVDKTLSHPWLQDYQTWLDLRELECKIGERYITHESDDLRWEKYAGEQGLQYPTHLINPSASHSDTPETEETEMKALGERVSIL
Insulin prom inh cell count – recorded beside Insulin prom inh, whose call it bears; normalized cell count, %; measured here: cell count, toxicity; reference of the scale not given here;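 cells exposed to compound for 48 h; stained nuclei by imaging scaled within each plate; lower means fewer cells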
HSV replic up primary fold – recorded beside HSV replic up, whose call it bears; fold increase; compound at 10 µM; measured here: primary screen fold increase 10 uM; tested in PC3 cells;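 GFP signal in the first replicate; 1 = infected wells without compound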
* = called active by the depositor; i = inactive; ? = inconclusive; · = not tested or not shown.

molecule	GALR2 ag	HSV replic up	HSV replic up primary fold	RGS16-Gao	Insulin prom inh	PKD1 kinase inh	Insulin prom inh cell count
CCOC(=O)N1CCc2c(sc3c2C(=O)NC(c2ccccc2)N3)C1 (stereo unspecified)	-1.6	·	·	95.8	·	-17.6	·
CCOC(=O)c1ccc(NC(=O)CSc2nc3cccnc3n2C)cc1	0.3	i	0.91	101.1	·	3.6	·
N#C/C(=C\c1ccc(Cl)cc1)c1n[nH]c(Cn2cncn2)n1	-2.9	i	1.02	110.3	6.9	-8.3	105.1
O=C(O)c1cccc(CN2C(=O)CSC2=O)c1	-0.3	i	0.85	98.5	·	-10.9	·
CCOC(=O)C1=NN(C(=O)Nc2cccc(C(F)(F)F)c2)C2C(=O)N(c3cccc(C(F)(F)F)c3)C(=O)C12 (stereo unspecified)	-2.5	i	1.03	71.9	12.5	-10.4	121.8
CC(C)CN(C(=O)c1ccc(=O)n(C)n1)c1nc2ccccc2s1	1.5	i	0.88	94.8	40.9	5.4	100.0
COc1ccc([C@H]2C=C3CN(C(=O)OC(C)(C)C)S(=O)(=O)[C@H]3C[C@H]2OC(=O)c2cccs2)cc1	·	i	1.01	109.6	·	·	·
COc1ccc(-c2cn(-c3ccc(C)cc3)c(=O)n2CC(=O)Nc2ccc(OC)c(OC)c2)cc1	-2.9	i	1.08	110.0	29.2	-2.8	116.6
O=C1/C(=C\Nc2ccc(OC(F)(F)F)cc2)CCN1c1ncccn1	5.0	i	1.13	97.9	·	-5.6	·
CCSc1nnc2n(-c3ccc(OC)cc3)c(=O)c3c4c(sc3n12)CCCC4	-2.4	i	1.02	-27.9	26.1	-2.5	105.0
O=C(/C=C/c1ccc(O)cc1)c1ccc(O)cc1O	-1.3	i	0.76	97.9	-57.1	-5.3	90.5
O=C(OCC(=O)N1CCCc2ccccc21)c1cccc(S(=O)(=O)N2CCc3ccccc32)c1	-0.9	i	0.97	107.2	·	-7.4	·
Clc1ccc(C2=Nn3c(nnc3-c3cccs3)SC2)cc1	-0.6	i	0.86	108.5	-58.1	-1.6	85.5
Cc1cc(C)nc(Nc2ccc(N3CCCC3)cc2)n1	-3.1	i	0.84	85.5	-12.3	-4.2	159.3
Cc1ccccc1NS(=O)(=O)c1cc(C(=O)N2CCc3ccccc3C2)ccc1C	-0.7	·	·	91.8	·	-2.1	·
COc1ccccc1C1OC2=C(Nc3ccc([N+](=O)[O-])cc3N2)C1=O (stereo unspecified)	·	i	0.9	102.5	·	·	·
Cc1cccc(OCCN2C(=O)C(=O)c3cc(C)ccc32)c1	·	i	0.66	110.6	4.8	-7.6	44.3
COc1ccc(CN(CC2CCCO2)C(=O)c2cc3sccc3n2C)c(OC)c1 (stereo unspecified)	·	i	0.85	105.1	·	-6.7	·
CC(Sc1cccc[n+]1[O-])C(=O)Nc1cccc([N+](=O)[O-])c1 (stereo unspecified)	·	i	0.93	102.0	·	-7.1	·
COc1cc(CCN2C(=O)c3cccc4cccc(c34)C2=O)c(S(=O)(=O)N2CCCCCC2)cc1OC	0.7	i	0.96	102.8	-36.7	-2.4	98.1
N#Cc1cccc(NC(=O)CSc2n[nH]c(=O)[nH]c2=O)c1	·	i	1.18	94.2	·	5.8	·
CCCc1cc(=O)[nH]c(-n2[nH]c3c(c2=O)CCCC3)n1	-1.1	·	·	95.7	-3.6	-6.8	144.8
CCN(C(=O)CSc1nnc(NCc2ccccc2)s1)C1CCS(=O)(=O)C1 (stereo unspecified)	·	i	0.92	95.4	-75.0	-1.6	76.9
CC1S/C(=N/N=C/c2cccs2)NC1=O (stereo unspecified)	-0.4	i	1.04	101.1	·	-10.3	·
Cc1nn(C(C)(C)C)c(OC(=O)c2ccc(Br)o2)c1Sc1ccccc1	-1.6	i	0.88	94.0	46.7	-10.3	120.0

Next part.
molecule	GALR2 ag	HSV replic up	HSV replic up primary fold	RGS16-Gao	Insulin prom inh	PKD1 kinase inh	Insulin prom inh cell count
COc1cccc(C(=O)COc2cccc(NC(=O)c3cccc([N+](=O)[O-])c3)c2)c1	-2.2	i	1.04	102.1	3.2	-13.9	114.5
CCCC(=O)Nc1sc2c(c1C#N)CC(C)(C)NC2(C)C	-0.9	i	1.01	110.7	25.6	-7.5	146.4
CCOc1ncccc1C(=O)OCC(=O)Nc1cc(S(=O)(=O)N2CCOCC2)ccc1Cl	-0.9	i	1.11	98.3	·	-8.7	·
CCN(CC)S(=O)(=O)c1cccc(C(=O)N/N=C/c2c(C)nn(-c3ccccc3)c2Cl)c1	0.5	i	0.82	102.8	-46.7	-10.0	140.1
c1ccc(CC2CCN(c3nc4ccccc4n4cnnc34)CC2)cc1	-0.3	i	1.03	105.1	7.1	-7.1	111.3
COc1cc(NC(=O)CCCC(=O)OCC(F)(F)C(F)F)nc(OC)n1	-0.8	i	0.83	102.3	·	-15.3	·
Cc1onc(-c2c(Cl)cccc2Cl)c1C(=O)N=S(C)(=O)c1ccccc1 (stereo unspecified)	·	i	0.98	102.1	·	·	·
COc1ccc(CNCC(O)COc2cccc3c2OC(C)(C)C3)cc1 (stereo unspecified)	·	i	0.96	103.7	·	-4.1	·
CC1CCCCN1S(=O)(=O)c1coc(C(N)=O)c1 (stereo unspecified)	-2.6	i	0.96	120.0	·	13.1	·
CCOc1ccc(/C=C(\C#N)C(=O)c2c(C)[nH]c3ccccc23)cc1OC	-1.7	i	0.99	102.6	7.4	-3.5	93.1
CN(C)/C=C(\C#N)S(=O)(=O)c1ccccc1	·	i	0.97	109.4	·	-2.4	·
O=C(CNCC1CCCO1)N1CCN(S(=O)(=O)c2ccc3ccccc3c2)CC1 (stereo unspecified)	-0.8	i	1.01	97.5	16.2	-9.2	112.8
COc1ccc(-c2[nH]ncc2-c2csc(C)n2)c(O)c1	-0.5	i	1.02	103.0	·	1.1	·
NC(=O)CC(NC(=O)c1ccc(Br)cc1)c1ccc(N2CCN(c3ccccn3)CC2)c([N+](=O)[O-])c1 (stereo unspecified)	·	i	0.96	110.8	·	·	·
Cc1noc(/C=C/N(C)C)c1S(=O)(=O)N1CCCC(C(=O)NCc2ccco2)C1 (stereo unspecified)	-2.1	i	0.78	98.5	·	-2.7	·
CC1Cc2cc(/C=C3/SC(=S)N(C)C3=O)ccc2O1 (stereo unspecified)	·	i	0.93	103.1	·	·	·
N#Cc1cc(-c2ccccc2)oc1/N=C/c1ccccc1O	-1.6	i	1.18	97.4	12.5	2.9	52.4
CCOc1ccc(NC(=O)CCN2CCN(c3ccccc3)CC2)cc1	-1.0	i	0.87	95.9	-100.0	-1.6	159.8
S=c1[nH]nc(-c2ccccc2Cl)n1CC1CCCO1 (stereo unspecified)	-1.6	i	0.97	103.9	44.4	2.1	104.7
CCc1nn(C)c(N)c1C	·	i	1.13	101.8	·	9.6	·
COC(=O)C1=C(C)NC(C)=C(C(=O)OC)C1c1cc2ccc(C)cc2[nH]c1=O	-1.7	i	1.06	88.7	·	5.0	·
Nc1nnn(CC(=O)N/N=C/c2ccco2)n1	·	i	1.19	102.6	·	·	·
CCOC(=O)c1ccc(NC(=O)CSc2nnc(C)n2-c2ccccc2)cc1	-0.6	i	0.88	98.7	-3.1	-8.4	83.9
O=C1CCN(C(=O)Nc2ccccc2)N1	-1.9	i	0.88	108.6	·	-1.1	·
C=CCn1c(-c2ccncc2)n[nH]c1=S	·	i	1.08	96.4	·	4.1	·

(next part)
molecule	GALR2 ag	HSV replic up	HSV replic up primary fold	RGS16-Gao	Insulin prom inh	PKD1 kinase inh	Insulin prom inh cell count
O=C(c1ccc2c(c1)OCO2)N(CC1CCCO1)C1(C(=O)NC2CCCCC2)CCCCC1 (stereo unspecified)	-2.8	i	1.08	111.5	-22.9	2.4	146.9
O=C(CN1CCOCC1)NCCNC(=O)CN1CCOCC1	-4.8	i	0.98	104.3	48.0	-8.8	72.9
CCOc1ccc(C(=O)Nc2cccc(-c3cc4ccccc4oc3=O)c2)cc1[N+](=O)[O-]	-2.8	?	·	99.5	-82.1	-18.3	103.1
CN(C)C(=O)N1CCN(C(=O)N(C)C)CC1	-0.5	i	0.84	97.1	0.0	-4.4	100.8
CCOC(=O)CSc1ncnc2c1cnn2-c1ccccc1	0.0	i	1.07	113.1	-121.4	-4.8	135.0
CC1CCCC(C)N1C(=O)Cn1c(SCC(=O)Nc2ccc3c(c2)OCO3)nc2ccccc21 (stereo unspecified)	-0.3	i	0.85	93.8	·	10.2	·
O=C(NCC1CCCO1)c1ccc2c(=O)n(CC3CCCO3)c(SCC(=O)N3CCCC3)nc2c1 (stereo unspecified)	·	i	1.01	88.0	·	3.8	·
CCOC(=O)N1CCN(C(=O)CN(C2CCCCC2)S(=O)(=O)c2ccc(Cl)cc2)CC1	-1.9	i	1.41	95.8	-27.8	-5.4	116.4
Cc1ccc(OCCn2c(C3CC(=O)N(Cc4ccccc4)C3)nc3ccccc32)cc1 (stereo unspecified)	-0.4	i	0.87	91.3	·	-11.6	·
Cc1cccc(C(C)C)c1NC(=O)CSc1nncn1C	0.2	i	1.15	103.6	-18.9	-2.1	111.4
Cc1onc(-c2c(F)cccc2Cl)c1C(=O)c1ccccc1O	·	i	1.02	96.4	·	·	·
CCOc1cc(NC(=O)c2ccco2)c(OCC)cc1NC(=O)CCc1ccccc1OC	-0.4	i	0.88	44.9	·	-10.1	·
COc1ccc([N+](=O)[O-])cc1NC(=O)COC(=O)c1ccccn1	·	i	1	98.0	11.8	-2.2	111.4
CCc1cccc(CC)c1-n1c(SCc2cc(=O)n3ccsc3n2)nnc1-c1cccnc1	-2.3	i	0.9	85.1	-7.0	-3.2	160.0
Cc1ccc(S(=O)(=O)Cc2ccc(C(=O)N3CCN(c4ccccn4)CC3)o2)cc1	-2.8	i	0.99	99.1	·	0.3	·
Cc1ccsc1C(=O)N(c1nc2ccccc2s1)c1c(C)cccc1C	-0.3	i	1	92.5	28.2	6.8	81.9
CCNc1nc(NCC)n2c(SCC(=O)c3ccc(C(C)C)cc3)nnc2n1	-0.7	i	0.98	102.1	·	-0.7	·
O=Nc1c2nc3ccccc3n(O)c-2c2ccccc12	-0.5	i	0.68	98.7	·	6.6	·
Cc1c(C(C)C)c(=O)n(-c2ccc(S(=O)(=O)NCc3ccccc3)cc2)n1C	·	i	1.07	111.4	·	0.6	·
NCCc1nnc(SCC(N)=O)o1	-0.6	i	1.06	93.0	7.0	-2.3	112.8
Cc1ccc(S(=O)(=O)Nc2cc(C(=O)O)ccc2N2CCCCC2)cc1	0.3	i	1.1	101.9	-6.5	4.4	156.8
CCn1c(SCC(=O)N/N=C/c2cc(OC)c(OC)c(OC)c2)nc2ccccc21	-0.6	i	0.97	92.6	·	1.3	·
Cc1cccc(OCc2nnc(SCC(=O)N3c4ccccc4Sc4ccc(Cl)cc43)o2)c1	-2.0	i	1.08	101.9	0.0	-3.6	78.0
CC1Cc2ccccc2N1C(=O)c1ccc2snnc2c1 (stereo unspecified)	-2.0	i	1.06	103.3	6.7	-22.1	98.0
CC(=C1C(=O)c2ccccc2C1=O)N1CCN(C/C=C/c2ccccc2)CC1	-0.4	i	0.99	93.8	8.3	1.1	122.7

Continuation:
molecule	GALR2 ag	HSV replic up	HSV replic up primary fold	RGS16-Gao	Insulin prom inh	PKD1 kinase inh	Insulin prom inh cell count
Cc1ccc(/C=N/Nc2nnc(Cc3ccccc3)c(=O)[nH]2)o1	·	i	0.93	136.3	18.2	-0.2	45.1
COc1cccc(NC(=O)Cn2c(=O)n(CCC(=O)NCc3ccco3)c(=O)c3ccccc32)c1	·	i	0.88	100.3	26.7	1.0	114.7
COc1ccc(NC(=O)N(CCCN(C)C)Cc2cc3cc(OC)ccc3[nH]c2=O)cc1	-0.9	i	0.91	107.5	0.0	-8.7	96.5
O=S(=O)(NC1CCCCCC1)c1ccc(Br)s1	-2.7	i	0.7	29.5	-68.4	-0.5	86.9

A draw from above in order of molecular weight, lowest first:
molecule	GALR2 ag	HSV replic up	HSV replic up primary fold	RGS16-Gao	Insulin prom inh	PKD1 kinase inh	Insulin prom inh cell count
CC1Cc2ccccc2N1C(=O)c1ccc2snnc2c1 (stereo unspecified)	-2.0	i	1.06	103.3	6.7	-22.1	98.0
COc1ccc(NC(=O)N(CCCN(C)C)Cc2cc3cc(OC)ccc3[nH]c2=O)cc1	-0.9	i	0.91	107.5	0.0	-8.7	96.5
COc1cccc(NC(=O)Cn2c(=O)n(CCC(=O)NCc3ccco3)c(=O)c3ccccc32)c1	·	i	0.88	100.3	26.7	1.0	114.7

Assay outcomes as filed in PubChem.
